# Assay outcomes deposited in PubChem by several laboratories.
# Bfl-1 A1 inh = caspase 3/7 activation in MEF A1-2A-BIM cells, primary screen, A1 inhibitor project, cell-based, luminescence, HTS; hit rate 0.066% among 330,000; Caspase-Glo 3/7 luminescence, 3 h; percent of clofoctol response, vehicle zero; caspase activation, % (test concentration not listed); AID 2462, 2010;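 active = over half of replicate activation scores above 10%, or exactly half above 10 with the replicate mean above 10; inconclusive = replicate mean below 10 yet half the replicates above 10; inactive = over half of replicates below 10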;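 note: wells of about 30 µL received 50 nL stock; many hits fall short of the cut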
# AF4-AF9 inh = inhibitors of AF4 peptide binding to AF9, primary screen, biochemical, AlphaScreen, biotin-AF4 peptide, FLAG-AF9, single point; inhibition, % at 10 µM; hit rate 0.47% among 350,000; Protein AF-9 (Homo sapiens), P42568;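 active = every replicate reaching a set inhibition limit, whatever the replicate mean, cut at about 25% in these data; inconclusive = mean inhibition reaches that limit but some replicates miss it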;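 note: 0% = plate neutral control median and 100% = total signal loss; the record names both 10 and 1 µM as test concentration; the first replicate is given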
# Target sequence (P42568 whole entry, looked up): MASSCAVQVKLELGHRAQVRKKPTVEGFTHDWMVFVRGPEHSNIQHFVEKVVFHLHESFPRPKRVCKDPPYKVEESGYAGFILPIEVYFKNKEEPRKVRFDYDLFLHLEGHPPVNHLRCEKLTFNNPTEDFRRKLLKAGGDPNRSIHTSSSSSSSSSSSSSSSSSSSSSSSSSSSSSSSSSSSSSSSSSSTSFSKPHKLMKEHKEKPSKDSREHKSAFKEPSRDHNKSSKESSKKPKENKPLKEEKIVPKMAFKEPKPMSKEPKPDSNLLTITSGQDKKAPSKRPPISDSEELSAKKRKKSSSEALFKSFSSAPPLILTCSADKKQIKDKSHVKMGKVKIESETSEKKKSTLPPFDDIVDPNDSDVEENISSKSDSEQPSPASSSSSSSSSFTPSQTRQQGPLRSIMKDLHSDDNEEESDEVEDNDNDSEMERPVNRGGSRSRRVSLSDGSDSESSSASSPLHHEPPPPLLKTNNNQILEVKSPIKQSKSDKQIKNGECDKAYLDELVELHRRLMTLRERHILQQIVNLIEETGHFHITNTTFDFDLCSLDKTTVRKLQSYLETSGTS
# T cruzi inh = inhibitors of intracellular T. cruzi growth, primary screen, luminescence, NIH3T3 host cells. T. cruzi beta-gal in NIH3T3, 90 h. inhibition, % (no concentration beside the values). hit rate 1.4% among 300,000. AID 1885, 2009;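 active = mean inhibition across valid replicates above about 55%, limit read from the data; inconclusive = mean below that limit but half or more replicates reach it; inactive = mean below it, under half of replicates reach it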;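 note: signal also drops with host cell toxicity which is not excluded here; 0% = plate median of DMSO wells and 100% = zero luminescence signal; higher percent means less beta-gal luminescence so fewer parasites; stock transfer was 50 nL into about 50 µL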
# rRNA inh HTS = reduced GFP signal of wild-type E. coli, primary screen, bacterial rRNA inhibitor project, GFP/RFP fluorescence, OD600, single point | E. coli WT GFP vs humanized-ribosome RFP mutants, 24 h; stronger effect = lower value; DMSO median 0, no signal -100 | GFP signal change (wild-type ribosome), % (no concentration beside the values) | hit rate 1.6% among 350,000 | AID 720706, 2013;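 active = significant combined selectivity score with lowered wild-type GFP, culture density cut under 30%, mutant RFP and density less affected; inactive = any of these conditions unmet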; note: one replicate is shown; some compounds called inactive have numbers as strong as hits
# Ecoli growth = E. coli growth inhibition, primary screen, OD600; Escherichia coli growth, 23 h; stronger effect = lower value; OD600 absorbance (test concentration not listed); hit rate 0.21% among 330,000; AID 1053175, 2014;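 active = OD600 absorbance below the run mean of sample wells minus 3.6 SD, in any replicate, cut at about 0.56 in these data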;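 note: stock transfer was 300 nL into about 60 µL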
# FGF22 binding = binders of human FGF22 protein, primary screen, FGF22 synaptogenesis inhibitor project, biophysical, thermal shift, single point; hit rate 1.5% among 340,000; recombinant FGF22 thermal shift, SYPRO orange fluorescence; percent of sucrose octasulfate shift, DMSO zero; calls only at 9.99 µM;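 active = melting point raised past a set limit in the mean and every replicate; inconclusive = no clear call; three in four hits are not shown here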
# Target sequence (Q9HCT0 whole entry, looked up): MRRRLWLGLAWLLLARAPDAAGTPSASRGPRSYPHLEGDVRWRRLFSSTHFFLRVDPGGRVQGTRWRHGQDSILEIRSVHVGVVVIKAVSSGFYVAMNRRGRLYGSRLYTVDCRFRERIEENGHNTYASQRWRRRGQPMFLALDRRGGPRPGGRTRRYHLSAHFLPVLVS
# Beta cell apopt = inhibitors of cytokine-induced beta cell apoptosis, primary screen, luminescence | protection from apoptosis, % (test concentration not listed) | INS-1E cytokine-induced death, ATP luminescence, 48 h; percent of positive-control rescue, neutral wells zero | hit rate 0.8% among 300,000;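 active = all replicates at 75% or more, or half of them and the mean; inconclusive = half reach 75% but not the mean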;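 note: 0% = cytokine-treated negative control wells and 100% = positive control rescue; higher means more ATP so stronger rescue from cytokine killing; wells of about 40 µL received 100 nL stock; the first replicate is given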
# UCH37 DUB inh = inhibitors of human UCH37 deubiquitinase, primary screen, biochemical, Ub-AMC cleavage, fluorescence; Ubiquitin carboxyl-terminal hydrolase isozyme L5 (Homo sapiens), Q9Y5K5; purified proteasome/UCH37; inhibition, % (no concentration beside the values); hit rate 0.33% among 330,000;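 active = mean of two replicates above 20%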;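 note: 0% = compound-free wells with enzyme and 100% = wells lacking proteasome; stock transfer was 100 nL into about 20 µL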
# Target sequence (Q9Y5K5 whole entry, looked up): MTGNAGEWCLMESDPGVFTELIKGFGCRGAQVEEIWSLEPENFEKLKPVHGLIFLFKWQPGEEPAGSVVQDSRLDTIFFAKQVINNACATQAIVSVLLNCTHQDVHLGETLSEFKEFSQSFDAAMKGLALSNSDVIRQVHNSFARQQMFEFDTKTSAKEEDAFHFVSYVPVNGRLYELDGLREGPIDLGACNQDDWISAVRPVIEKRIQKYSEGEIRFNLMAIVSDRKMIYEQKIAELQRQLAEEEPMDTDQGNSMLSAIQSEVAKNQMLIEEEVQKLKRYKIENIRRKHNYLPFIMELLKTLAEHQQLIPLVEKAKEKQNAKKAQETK
#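 Material: human UCH37 enzyme supplied as purified proteasome complex / Amount: 0.15 nM proteasome as dispensed / Buffer or medium: pH 7.4 Tris-HCl (50 mM) with ovalbumin, ATP-MgCl2, DTT / Times: preincubation 30 min, reaction 25 min, room temperature / Technique: AMC fluorescence from Ub-AMC cleavage, excitation 355 nm, emission 460 nm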
# rRNA inh HTS OD600 = also measured in rRNA inh HTS; calls as there; OD600 change, %; measured here: OD600 growth;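 optical density of the mix in the first replicate; 0 = DMSO median and -100 = no signal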
# rRNA inh HTS RFP = further read-out of rRNA inh HTS, marked with its call; RFP signal change, %; measured here: RFP humanized mutant strains;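 first replicate; 0 = DMSO median and -100 = no signal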
# An asterisk follows results filed as active; i = inactive; ? = inconclusive; · = no result given.
smiles	Bfl-1 A1 inh	AF4-AF9 inh	T cruzi inh	rRNA inh HTS	rRNA inh HTS OD600	rRNA inh HTS RFP	Ecoli growth	FGF22 binding	Beta cell apopt	UCH37 DUB inh
CN(C)/C=C1/C=C(C=O)OC1=O	0.2	8.5	-9	23	4	5.1	0.67	i	-10	9.6
C=C(C)CNC(=S)N/N=C/c1ccco1	-0.8	?	9	2	-5	-7.7	·	i	-11	·
COc1ccc(C2C(C#N)=C(N)N(N(C)C)C3=C2C(=O)CC(C)(C)C3)cc1 (stereo not given)	0.8	-8.8	0	14	7	1.4	0.61	i	2	2.8
Cc1c(C(=O)N2CCN(c3ncccn3)CC2)oc2ccc(F)cc12	0.3	-3.1	·	-5	-26	2.7	0.66	i	-2	3.6
Cc1ccc(/C=N/NC(=O)C[n+]2ccccc2)o1	-0.6	-1.2	3	17	7	-10	·	i	-3	·
CCN(CC(=O)NC1CCS(=O)(=O)C1)C(=O)COc1ccccc1-c1ccccc1 (stereo not given)	-2.0	·	-7	·	·	·	0.69	·	-2	2.7
COc1ccc(C2Nc3ccccc3C(=O)N2NS(=O)(=O)c2ccccc2)cc1 (stereo not given)	-0.3	-2.2	0	7	-4	-0.3	0.71	i	-2	-150
C/C(=N\NC(=O)c1cc([N+](=O)[O-])cc([N+](=O)[O-])c1)c1ccco1	0.4	-3.2	57*	9	11	0.5	·	i	-9	·
CC(=O)C(C)Oc1ncn(-c2ccccc2)n1 (stereo not given)	-0.3	·	-3	·	·	·	0.66	·	-5	-1.9
O=C(c1ccoc1)N1CCC2(CC1)Oc1ccc(Cl)cc1C(=O)C21CC(c2cccnc2)=NO1 (stereo not given)	0.3	3.5	-10	0	-8	15	0.7	i	1	2.2
Cc1c(NN=C(C#N)C#N)c(=O)n(-c2ccccc2)n1C	0.6	-0.8	3	18	18	1.9	0.65	i	0	12
CCC(C)NC(=O)CCc1nnc2ccc(N3CCC(C)CC3)nn12 (stereo not given)	0.0	-1.3	-7	1	9	3.1	0.7	i	-3	1.5
COc1cc(/C=C(/C#N)c2nc3ccccc3[nH]2)ccc1OCC(=O)Nc1ccccc1C(C)C	10.0*	·	15	·	·	·	0.69	·	62	-263
CCc1ccc(NS(=O)(=O)c2ccc3[nH]cc(C(=O)NCC4CCCO4)c(=O)c3c2)cc1 (stereo not given)	1.4	·	3	·	·	·	0.68	·	-3	1.3
Cc1ccc(N2C(=O)CC(Nc3ccc(Cl)c(S(=O)(=O)N(C)C)c3)C2=O)c(C)c1 (stereo not given)	0.3	0.7	-26	-13	-18	-1.9	0.66	i	-9	1.1
CC1CCN(CC2C(=O)O[C@@H]3C[C@@]4(C)CCC[C@H](C)C4=C[C@H]23)CC(C)(C)C1 (stereo not given in full)	0.0	3.3	-117	8	0	7.9	0.68	i	-31	1.6
C[C@@H]1CN([C@H](C)CO)C(=O)Cc2cc(NS(=O)(=O)c3ccc(Cl)cc3)ccc2O[C@H]1CN(C)Cc1ccc(C(F)(F)F)cc1	1.1	·	·	0	1	0.2	·	·	-8	2.4
CCOCCCNC(=O)c1c(C)c(C(=O)OCC)n(C)c1C	1.2	·	-8	·	·	·	0.72	·	-6	-0.3
O=C1/C(=C/c2cccnc2)SC(=S)N1CCc1ccccc1	-1.4	4.2	-45	1	11	4.5	0.65	i	-22	3.8
COCCn1c(N)c(N(Cc2ccccc2)C(=O)c2ccc(C#N)cc2)c(=O)[nH]c1=O	-0.3	-5.1	-24	21	13	0.9	0.72	i	1	-12
C/C=C\C=C/C(=O)Nc1cccc(C2=NOC3(C2)C[C@@H](C(N)=O)N(C(=O)[C@H]2CCC(=O)N2)C3)c1 (stereo not given in full)	1.2	·	-14	·	·	·	·	·	-5	-1.1
Cc1ccccc1Oc1ncnc2oc(-c3ccccc3)cc12	-0.1	·	8	·	·	·	0.71	·	-16	-0.1
O=P(Cc1nnco1)(c1ccccc1)c1ccccc1	0.0	·	2	·	·	·	0.7	·	6	-2.1
S=c1[nH]nc(-c2cc(-c3ccccn3)nc3ccccc23)o1	0.2	-2.4	1	-15	2	13	·	i	-2	·
COc1ccc(C(C(=O)NCCC(C)C)N(CCO)C(=O)c2snc(C(N)=O)c2N)cc1OC (stereo not given)	0.5	2.2	0	13	8	0.3	0.7	i	-4	-34
COc1ccc(Cl)cc1S(=O)(=O)N1CCC(C(=O)NCc2ccccn2)CC1	-0.2	-0.6	3	10	2	1.2	0.65	i	·	4.0
CCc1cc2cc(C)ccc2nc1SCC(=O)NC1CCCC1	0.0	-1.6	22	2	10	-1.0	0.7	i	-9	6.1
Cc1ccc(S(=O)(=O)N2CCCC(C(=O)NCCc3ccc4c(c3)OCO4)C2)cc1 (stereo not given)	0.2	·	11	·	·	·	0.74	·	0	6.0
O=C(Nc1cccc2ccccc12)c1ccc(Cn2cc(Cl)cn2)cc1	0.5	·	-14	·	·	·	0.71	·	-11	0.9
O=C(Nc1ccc(C(=O)c2ccc(C(=O)O)c(C(=O)O)c2)cc1)c1ccccc1	-1.2	-8.2	-3	-1	5	-2.2	0.71	i	-3	6.9
COc1ccc(C2CC(=O)n3nc(C45CC6CC(CC(C6)C4)C5)nc3S2)cc1OC (stereo not given)	0.6	·	10	·	·	·	0.7	·	-3	1.6
CCC(=O)c1ccc(OCC(O)Cn2c(C)nc3ccccc32)cc1 (stereo not given)	-0.7	·	·	·	·	·	0.68	·	43	0.4
O=C(O)/C=C\C(=O)NC1CCCCC1	0.2	·	-11	·	·	·	0.71	·	-3	1.2
CCOC(=O)c1sc(NC(=O)CNCc2cccnc2)c(C(=O)OCC)c1C	0.5	-14	30	19	5	1.4	0.69	i	16	-1.0
CN1C(=O)/C(=C\c2ccc(-c3ccccc3)o2)SC1=S	-0.4	-1.3	16	-2	9	26	0.8	·	4	7.0
Cc1nc2c3ccccc3nc(SCC(=O)c3ccc(Cl)cc3)n2n1	1.3	·	-12	·	·	·	0.72	·	4	-11
O=C(O)CC(NC(=O)C1c2ccccc2Oc2ccccc21)c1ccc(OC2CCCC2)cc1 (stereo not given)	1.6	-11	5	-12	-17	0.5	0.68	i	-6	-1.9
O=C(Nc1cccc(Cl)c1Cl)C1CCCO1 (stereo not given)	0.5	-10	0	5	16	1.9	·	i	1	·
CCCNCc1cc(Cl)c(OCC)c(Cl)c1	0.3	·	12	·	·	·	0.66	·	2	4.5
CC(C)COc1cccc(C(=O)NC2(C)CCS(=O)(=O)C2)c1 (stereo not given)	-0.4	-1.4	-1	5	7	-2.6	0.7	i	-3	5.2
CCCCN(CC)C(=O)CSc1nc2n[nH]c(C)c2c(=N)n1-c1cccc(C)c1	2.3	1.0	41	-13	-14	-1.7	0.68	i	12	0.1
CCn1c(C)nc2cc(C(=O)N/N=C/c3cccc(O)c3O)ccc21	-0.3	-2.2	-24	-35	-36	-6.7	·	i	76*	·
CC1Cc2ccccc2N1CC(=O)Nc1ccc2c(c1)OCCCO2 (stereo not given)	0.5	2.3	·	-2	1	2.8	0.65	i	-2	0.4
O=C(O)CCn1c(-c2ccccc2)cc2c1CCCC2=O	1.0	-0.4	-6	4	10	1.3	0.7	i	2	2.7
Cc1nc(=S)c2c([nH]1)-c1ccccc1CC21CCCCC1	0.6	2.8	53	-12	6	5.7	0.69	i	5	6.3
Cc1ccc(-c2nc(CS(=O)CC(=O)NCCN3CCCCC3C)c(C)o2)cc1 (stereo not given)	0.3	-1.9	14	3	7	0.5	0.7	i	-9	4.1
O=C(c1cccc(NC2=NC3CS(=O)(=O)CC3S2)c1)N1CCN(c2ccc(F)cc2)CC1 (stereo not given)	·	0.0	-10	4	6	1.7	0.81	i	1	4.0
CCC(=O)Nc1cc(C(C)(C)C)ccc1C(C)=O	0.0	·	-4	·	·	·	0.68	·	-7	1.7
O=C(NCc1ccco1)c1cc(-c2cccs2)nc2ccccc12	0.3	4.8	-17	-18	-19	-2.2	0.71	i	·	-36
O=S(=O)(NCC(c1cccnc1)N1CCOCC1)c1cccs1 (stereo not given)	0.3	·	-32	17	15	3.2	0.64	·	·	4.2

# One compound at a time, from the list above. Values in the order: Bfl-1 A1 inh, AF4-AF9 inh, T cruzi inh, rRNA inh HTS, rRNA inh HTS OD600, rRNA inh HTS RFP, Ecoli growth, FGF22 binding, Beta cell apopt, UCH37 DUB inh
# O=C(NCc1ccco1)c1cc(-c2cccs2)nc2ccccc12 in the list: 0.3, 4.8, -17, -18, -19, -2.2, 0.71, i, ·, -36
# CCC(=O)c1ccc(OCC(O)Cn2c(C)nc3ccccc32)cc1 (stereo not given) in the list: -0.7, ·, ·, ·, ·, ·, 0.68, ·, 43, 0.4
# CCC(=O)Nc1cc(C(C)(C)C)ccc1C(C)=O in the list: 0.0, ·, -4, ·, ·, ·, 0.68, ·, -7, 1.7

# (more compounds)
smiles	Bfl-1 A1 inh	AF4-AF9 inh	T cruzi inh	rRNA inh HTS	rRNA inh HTS OD600	rRNA inh HTS RFP	Ecoli growth	FGF22 binding	Beta cell apopt	UCH37 DUB inh
Cc1ccc(N2C(=O)CS/C2=N\C(=S)Nc2ccccc2)cc1	0.4	1.2	3	4	1	16	·	i	15	·
COc1ccccc1CNC(=O)[C@H](C)NC(=O)C1CCN(C(=O)[C@@H]2CCCN2C(=O)OC(C)(C)C)CC1	0.2	-2.6	0	·	·	·	0.79	i	2	2.3
Cc1cc(C)c(C#N)c(SCC(=O)Nc2ccc(S(=O)(=O)Nc3ncccn3)cc2)n1	0.7	-1.5	-21	13	8	3.1	0.75	i	2	-0.8
O=C1NC(=Nc2ccccc2Cl)S/C1=C\c1cccc([N+](=O)[O-])c1	-0.5	3.3	9	-34	-68	-0.8	·	i	-2	·
CC(C)(C)C(=O)Nc1cc(S(=O)(=O)Nc2ccc(Cl)cc2)ccc1Cl	-0.6	3.1	-7	-43	-51	-6.5	0.69	i	-3	-0.5
CCOC(=O)N1CCC(NC(=O)C(Cc2ccccc2)NC(=O)c2ccco2)CC1 (stereo not given)	0.8	·	1	·	·	·	0.73	·	-5	2.7

# The list is partial; rates above refer to the full screens.
